# VDR inhibitor – blocks the human vitamin D receptor; P11473; VDR-SRC2-3 peptide fluorescence polarization, 2 h; Potency, µM, for inactives: max response, negative = inhibition, usual class: inhibitors; 400,000 compounds, 0.93% hits; active means well fitted inhibition curve with a large enough effect; inconclusive means small, poorly fitted or top-dose-only effect, or another doubt; inactive means no such curve, though single readings can be large or run the other way; further: series mostly up to about 120 µM
# Target sequence (P11473 whole entry, looked up): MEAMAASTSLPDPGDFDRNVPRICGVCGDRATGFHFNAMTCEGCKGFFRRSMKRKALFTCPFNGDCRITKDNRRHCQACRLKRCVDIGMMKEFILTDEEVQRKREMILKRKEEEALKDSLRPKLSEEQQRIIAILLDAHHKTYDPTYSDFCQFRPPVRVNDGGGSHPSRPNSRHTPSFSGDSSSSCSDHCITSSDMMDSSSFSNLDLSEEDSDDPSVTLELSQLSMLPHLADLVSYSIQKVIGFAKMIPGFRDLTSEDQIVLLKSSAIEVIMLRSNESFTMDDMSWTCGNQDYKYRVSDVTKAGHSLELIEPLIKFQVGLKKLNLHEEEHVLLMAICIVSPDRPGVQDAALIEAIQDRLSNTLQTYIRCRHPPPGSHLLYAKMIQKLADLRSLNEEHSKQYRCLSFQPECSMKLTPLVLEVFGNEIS
#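 Reagent solutions, kept cold and dark, are dispensed first; compounds are then pinned in at 23 nl, plates briefly spun, and incubated 2 h at ambient temperature. Inhibition of VDR–SRC2-3 peptide binding is read by fluorescence polarization.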
# * hit, by the source's call; ? = inconclusive; & = joins results of further samples; [ ] = dose if it differs, or a comment. On the % scale 0 is the no-effect control and ±100 the full control effect; potency means the concentration at half of the fitted maximal effect. A portion of the library; rates above refer to the full screens.
SMILES,VDR inhibitor
O=C(CCc1nc2ccccc2s1)OCC(=O)c1ccccc1,15.2%
Cc1ccccc1C(=O)NCC(=O)N1CCN(c2ccccn2)CC1,-15.5%
O=C(Nc1nnc(C(F)(F)F)s1)c1cccnc1,3.1%
COc1cc(C(=O)NCC(c2ccccc2)N(C)C)ccc1OCc1c(C)noc1C (stereo unspecified),1.1%
COc1ccc(NC(=O)Cn2nnc(C(=O)NCc3ccco3)c2N)c(OC)c1,-9.3%&5.3%
O=C(N/N=C/c1ccccn1)c1sc2ccccc2c1Cl,-12.4%
COc1cccc(CNS(=O)(=O)/C=C/c2ccc(OC)c(OC)c2)c1,16.3%
Cc1ccc(N2C(=O)c3cccc4c([N+](=O)[O-])ccc(c34)C2=O)c2cccnc12,-5.4%
CC(=O)c1cccc(NC(=O)C2=CC(c3ccc4c(c3)OCO4)=NS(=O)(=O)N2C)c1,3.6%&15.0%
CCCc1nc2ccc(NC(=O)NCCC(=O)OCC)cc2c(=O)n1Cc1ccc(Cl)cc1,-9.8%
CC(Oc1cccc(Cl)c1)C(=O)NC1CC(C)(C)NC(C)(C)C1 (stereo unspecified),3.9%
CSc1ccc(/C=N/N2CCN(Cc3ccc(Cl)cc3)CC2)cc1,37.1%[activator]
S=C(Nc1ccc(Cl)cc1)N1CCOCC1,23.0%
CCOC(=O)C1CCN(c2nc3ccccc3nc2C(C#N)C(=O)OCCOC)CC1 (stereo unspecified),-3.0%
CC1CCCCC12NC(=O)N(CC(=O)OCc1cccc(F)c1)C2=O (stereo unspecified),-4.8%
Cn1cc(S(=O)(=O)N2CCCC2)cc1C(=O)NCc1ccc(Cl)cc1,-5.6%
COC(=O)c1ccc(COc2ccccc2/C=C/C(=O)c2ccc(OCC(=O)O)cc2)cc1,-8.3%
CCOC(=O)C(NC(C)=O)(Nc1cccc(F)c1)C(F)(F)F (stereo unspecified),-0.5%
O=c1oc2c(-c3cccc(F)c3)cc(O)cc2s1,13.7%
Cc1ccn2cc(-c3cc4ccccc4oc3=O)nc2c1,-8.4%
Cc1ccc(C)c(NC(=O)CC2Oc3ccccc3NC2=O)c1 (stereo unspecified),-3.4%
COc1ccc(C(=O)Cn2c(=N)n(C)c3ccccc32)cc1,-17.5%
CCOCCCn1cc(C(=O)c2cc(Br)ccc2O)cc(C#N)c1=O,-8.7%
Clc1ccc(SCCOCCN2CCc3ccccc3C2)cc1,17.4%
CCOC(=O)CCCCNCc1ccccc1,6.4%
SMILES,VDR inhibitor
COc1ccc(-n2nc3c(c2NC(=O)C(=O)N2CCN(C)CC2)CSC3)cc1,-4.8%
CCOc1cc(C)nc(N2CCCC(C(=O)NCc3ccccc3F)C2)n1 (stereo unspecified),8.4%
CC1(C(=O)Nc2ccccc2)Cc2ccccc2C(=O)O1 (stereo unspecified),11.6%
N#Cc1ccc(-c2cccnc2)nc1SCc1ccc(Cl)cc1Cl,?
CC(C)(C)c1ncc(S(=O)(=O)c2ccc(C(F)(F)F)cn2)c(N)n1,6.2%
COc1ccc(-c2cc(C(F)(F)F)nc(SCC(=O)N3CCCCC3C)n2)cc1OC (stereo unspecified),-8.5%
CCN(c1ccc(NC(=O)CN2C(=O)NC3(CCOc4ccccc43)C2=O)cc1)C(C)C (stereo unspecified),2.3%
Cn1cccc1Cc1nnc(SCC(=O)NCc2ccc3c(c2)OCO3)n1CCc1ccccc1,12.8%
CC[C@H](C)[C@H](NC(=O)[C@H](C)NC(=O)[C@H](Cc1cnc[nH]1)NC(=O)[C@@H]1CCCN1C(=O)CNC(=O)[C@H](CC(C)C)NC(=O)[C@H](CC(C)C)NC(=O)[C@H](Cc1ccc(O)cc1)NC(=O)CNC(=O)[C@H](C)NC(=O)[C@H](CO)NC(=O)[C@H](CC(N)=O)NC(=O)[C@H](CC(C)C)NC(=O)[C@@H](NC(=O)[C@H](Cc1c[nH]c2ccccc12)NC(=O)CN)[C@@H](C)O)C(=O)N[C@@H](CC(=O)O)C(=O)N[C@@H](CC(N)=O)C(=O)N[C@@H](Cc1cnc[nH]1)C(=O)N[C@@H](CCCNC(=N)N)C(=O)N[C@@H](CO)C(=O)N[C@@H](Cc1ccccc1)C(=O)N[C@@H](CO)C(=O)N[C@@H](CC(=O)O)C(=O)N[C@@H](CCCCN)C(=O)N[C@@H](Cc1cnc[nH]1)C(=O)NCC(=O)N[C@@H](CC(C)C)C(=O)N[C@H](C(N)=O)[C@@H](C)O,4.3%
Nc1c(S(=O)(=O)c2ccccc2)csc1C(=O)O,6.1%
COc1ccc(CCN2C(=O)CSC2c2cccc([N+](=O)[O-])c2)cc1OC (stereo unspecified),-16.2%
CCn1c(O)c(C=Nc2ccccc2)sc1=S,-15.3%
CCc1ccccc1NC(=O)CCCn1c(=O)c2cccn2c2ccccc21,1.7%
COc1ccccc1CNC(=O)[C@@H]1CCCN1S(=O)(=O)c1ccc(Cl)cc1,12.5%
O=C(O)CCN(CCC(=O)O)c1ccccc1,-4.5%
COc1ccc(N2Cc3cccc(C(=O)Nc4cccc(F)c4)c3C2=O)cc1,9.0%
CN(Cc1ccccc1)Cc1c(O)ccc2ccccc12,?
CS(=O)(=O)N1CCN(C(=O)Cc2ccc(Br)cc2)CC1,-24.3%
Cc1ccc(S(=O)(=O)NCc2ccccc2)cc1C(=O)N1CCN(S(=O)(=O)c2ccccc2)CC1,10.0%
CC1=C(c2ccccc2)C=NNCC1=O,5.2%
CCN(c1ccc(N=Cc2c(O)n(Cc3ccc(OC)cc3)c(=O)c3ccccc23)cc1)C(C)C,6.3%
Cc1ccc(C2C(C#N)=C(N)Oc3cc(N)ccc32)cc1 (stereo unspecified),6.6%
COCCCn1c(-c2ccc(Cl)cc2)n[nH]c1=S,8.9%
COc1cccc(CNC(=O)CCNC(=O)N2CCn3c2nc2ccccc23)c1,5.0%
Cc1ccc(C(=O)N2CCN(S(C)(=O)=O)C2)cc1,-4.5%

# 2 compounds drawn at random from those above, as already listed:
SMILES,VDR inhibitor
COc1ccc(CCN2C(=O)CSC2c2cccc([N+](=O)[O-])c2)cc1OC (stereo unspecified),-16.2%
O=C(O)CCN(CCC(=O)O)c1ccccc1,-4.5%

# (next part)
SMILES,VDR inhibitor
O=C(NCc1ccc(F)cc1)C1CCCN(c2cnccn2)C1 (stereo unspecified),2.0%
CCOc1ccccc1NC(=O)Cn1c(=O)n(Cc2ccco2)c(=O)c2ccc(C(=O)NC3CCCC3)cc21,3.9%
Cc1cccc(CNC(=O)c2ccc(Cn3c(SCc4ccccc4)nc4cccnc43)cc2)c1,22.9%
C=CCn1c(-c2ccc(Cl)cc2)c[nH]c1=S,-5.5%
CC1CCN(c2nc3ccccc3nc2SCC(=O)Nc2ccccc2C(C)C)CC1,-1.9%
Cc1ccc(C)c(S(=O)(=O)N2CCN(C(=O)c3ccccc3Cc3ccccc3)CC2)c1,2.6%
CSc1ncccc1C(=O)OCC(=O)Nc1ccc2c(c1)OCO2,-14.9%
CCOC(=O)c1sc2ccccc2c1S(=O)(=O)Nc1c(C)cccc1C,3.7%
NCCCCCC(=O)O,-4.2%&2.6%&7.4%
COc1ccc(OCC(=O)NCc2ccc3c(c2)CCN3C(=O)c2cccc(C)c2)cc1,22.0%
CN(C(=O)COC(=O)/C=C/c1ccc(Cl)c(Cl)c1)c1c(N)n(Cc2ccccc2)c(=O)[nH]c1=O,-6.2%
O=C(COC(=O)c1cc(S(=O)(=O)N2CCOCC2)ccc1Cl)NCc1ccccc1,-10.6%
O=C(CNS(=O)(=O)c1ccc(Br)cc1)N1CCN(c2ccc(F)cc2)CC1,15.5%
Cc1ccc(C)c(C(=O)COC(=O)c2cc(Cl)nc3ccccc23)c1,16.7%
O=C1OC(N2C(=O)CC[C@H]2C(=O)NCC2CCCO2)c2ccccc21 (stereo partly specified),6.2%
COc1cccc(OCCNc2cc(N3CCOCC3)ccc2[N+](=O)[O-])c1,-3.5%
COC(=O)c1ccc(COC(=O)C2CC(O)CN2S(=O)(=O)c2ccc([N+](=O)[O-])cc2)cc1 (stereo unspecified),2.8%
O=C(NCc1ccccc1)c1ccc(S(=O)(=O)Nc2cccc(C(F)(F)F)c2)cc1,-16.5%
Cc1cc(C)c(C#N)c(SCCS(=O)(=O)Cc2ccc(Cl)cc2)n1,1.7%
Cc1cc(C)cc(N(CC(=O)NC2CCCC2)C(=O)CCC(=O)Nc2cc(C)ccn2)c1,18.7%
O=C(Nc1ccc(N2CCOCC2)cc1)Nc1cnsn1,-21.2%
CCOC(=O)c1c(-c2ccccc2)csc1NC(=O)c1ccc(S(=O)(=O)N2CCOCC2)cc1,-0.7%
Cc1cc(=O)oc2c(C)c(OC(C)C(=O)Nc3ccc(N4CCC(C)CC4)cc3)ccc12 (stereo unspecified),-3.5%
COc1ccc2ccccc2c1CN1CCSCC1,-3.7%
CN(Cc1cc2ccccc2[nH]c1=O)C(=O)COc1ccccc1,-1.4%
SMILES,VDR inhibitor
CC(C(=O)Nc1cc(Cl)cc(Cl)c1)N1CCCC1 (stereo unspecified),3.6%
CCOC(=O)N1CCN(C(=O)c2nn(C)c3c2CSc2ccccc2-3)CC1,-19.2%
CCOc1ccc(S(=O)(=O)N2CCN(c3ccc(Cl)c(Cl)c3)CC2)c2ccccc12,4.8%
Cc1ccc(S(=O)(=O)Nc2ccccc2CNc2cccc(C)n2)cc1,-10.1%
Cc1noc(C)c1-c1cc(NCc2ccccc2)ncn1,6.4%
COc1ccccc1C(=O)OCC(=O)Nc1ccc(OC(F)F)cc1,-0.1%
Cc1cccc2c1cnn2C(=O)CCC(=O)NCC(C)c1ccccc1 (stereo unspecified),0.3%
C=CCCN([C@H](CO)Cc1ccccc1)S(=O)(=O)c1ccccc1Br,11.5%
Cc1ccnc(SCCn2c(N3CCOCC3)nc3c2c(=O)[nH]c(=O)n3C)n1,-4.3%
O=C1[C@H]2[C@@H](c3ccc(F)cc3)N3C(=O)N(c4ccc(C(F)(F)F)cc4)C(=O)[C@@]3(Cc3ccccc3)[C@H]2C(=O)N1C1CCCCC1,10.2%
Cc1cc(C)n(-c2ccc(C(=O)O)cc2[N+](=O)[O-])n1,-20.4%
Oc1ccccc1C1OCC2(CO1)COC(c1ccccc1O)OC2 (stereo unspecified),10.5%
CCCS(=O)(=O)N1CCC(C(=O)NCCc2ccccc2)CC1,-6.2%
CCOC(=O)c1c(C)[nH]c(C(=O)COC(=O)C2CC2C)c1C (stereo unspecified),8.0%
CN(C)CC1CCCCC1OC(=O)/C=C/c1ccc(Cl)cc1Cl (stereo unspecified),-2.6%
O=C(NCCN1CCN(c2ccccc2)CC1)C1CCN(S(=O)(=O)c2cccs2)CC1,0.6%
O=C(N=Nc1c(O)[nH]c2ccc(F)cc12)c1ccc(NS(=O)(=O)c2cccs2)cc1,22.3%
COc1ccc(-c2cnnc(N/N=C/c3ccc(OC)c(OC)c3)n2)cc1,-20.1%
CCN1C(=O)S/C(=C/c2cn(C)c3ccccc23)C1=O,-11.6%
COc1cccc(-c2cc(C(F)(F)F)nc(NCCc3ccccc3)n2)c1,-4.4%
COC(=O)c1ccc(Nc2nnc(-c3ccc(C)c(S(=O)(=O)N4CCN(C)CC4)c3)c3ccccc23)cc1,3.7%
Cc1cccc(C(=O)NCC(=O)Nc2ccc(S(=O)(=O)Nc3nc(C)cc(C)n3)cc2)c1,-13.4%
Cc1ccc(CNC(=O)COC(=O)c2ccc(S(=O)(=O)NCc3ccco3)cc2)cc1,29.5%
COc1ccc(-n2c(=O)c3sc4ccccc4c3n(CC(=O)Nc3ccccc3F)c2=O)cc1,-8.2%
O=C(Oc1ccc(C(=S)N2CCOCC2)cc1)c1ccc(Br)cc1,-6.6%
SMILES,VDR inhibitor
O=C(CCS(=O)(=O)c1cccs1)Nc1ccc(C(=O)NC2CCN(Cc3ccccc3)CC2)cc1,-9.9%
CCC(=O)n1nc(-c2cccnc2)nc1NCc1ccccc1,36.6%[activator]
Cc1ccc(NC(=S)NN2CCN(C)CC2)cc1,-14.8%
COc1cccc(N2CCN(C(=O)C3CCN(S(=O)(=O)c4c(C)noc4C)CC3)CC2)c1,-8.0%
CC(=O)Nc1c(-c2ccccc2)nc2ccc(Cl)cn12,6.1%
COc1ccc(CNC(=O)c2ccc(NC(=O)C3=CSCCO3)cc2)cc1,-5.7%
O=C(NCC(c1ccco1)N1CCc2ccccc2C1)c1c(F)cccc1F (stereo unspecified),2.8%
CCCCOc1ccc(C(=O)Nc2ccc3c(c2)C(=O)NC3=O)cc1,1.7%
COc1ccc(C(C2C(=O)CC(C)(C)CC2=O)C2C(=O)CC(C)(C)CC2=O)cc1COCC(F)(F)F,20µM*
Cc1cc(C)nc(NC(=O)c2cc(-c3ccc4c(c3)OCO4)nc3ccccc23)c1,-4.4%
Cc1cc(-n2nc3ccc(Cl)cc3n2)c(O)c(C(C)(C)C)c1,-2.9%
Cc1cc(C)n2nc(-c3cnn(C)c3C(F)(F)F)cc2n1,5.1%
CC1=NNC(=O)C1CCC(=O)N/N=C(\C)c1ccc(Cl)cc1 (stereo unspecified),-19.3%
O=C(NCCS(=O)(=O)N1CCN(c2ccccc2F)CC1)c1ccc(Br)o1,?
COc1cc(NC(=O)COC(=O)c2ccc([N+](=O)[O-])s2)cc(OC)c1OC,4.7%
CCOC(=O)CSc1nnc(-c2nnc(SCC(=O)OCC)n2CC)n1CC,?
COc1ccc(CC(=O)Nc2sc3c(c2C(N)=O)CCCC3)cc1OC,-1.9%

# 2 entries from above, with the structure last:
VDR inhibitor | mol
1.7% | CCCCOc1ccc(C(=O)Nc2ccc3c(c2)C(=O)NC3=O)cc1
20µM* | COc1ccc(C(C2C(=O)CC(C)(C)CC2=O)C2C(=O)CC(C)(C)CC2=O)cc1COCC(F)(F)F

# Some of these compounds in order of the VDR inhibitor value, falling:
SMILES,VDR inhibitor
Cc1cc(C)n2nc(-c3cnn(C)c3C(F)(F)F)cc2n1,5.1%
COc1cc(NC(=O)COC(=O)c2ccc([N+](=O)[O-])s2)cc(OC)c1OC,4.7%
COc1ccc(CC(=O)Nc2sc3c(c2C(N)=O)CCCC3)cc1OC,-1.9%
CC1=NNC(=O)C1CCC(=O)N/N=C(\C)c1ccc(Cl)cc1 (stereo unspecified),-19.3%
